# Screens from PubChem.
# ugtP null kill: compounds lethal to S. aureus RN4220 ugtP deletion mutant; OD600 growth, 16 h; some inactives read as strong as hits; growth inhibition, % (test concentration not listed); hit rate 0.54% among 330,000;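 active = z-score under -3 and OD600 up to 0.15 on both plates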;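 also: plate controls were untreated wells for no effect and antibiotic for full effect; wells of about 80 µL received 100 nL stock; the first replicate is given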
# BJeLR viability: BJeLR cell viability loss. hit rate 0.17% among 300,000. BJeLR (HRASV12) viability, CellTiter-Glo ATP luminescence, 48 h; reference of the scale not given here. inhibition, % (test concentration not listed);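 active = replicate mean above 50%; inconclusive = above 50% but judged a plate artefact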;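 also: 50 nL library stock added to about 25 µL; numbers are from one replicate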
# Bead autofluor: flagged as autofluorescent in microsphere protease counterscreen; compound autofluorescence counterscreen, microsphere flow cytometry; active compounds read high; fluorescence intensity (concentration not given with the values); hit rate 3.1% among 360,000; AID 624483;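 active = at least 3 SD above the mean of all compounds, about 16000 in these data; inconclusive = too few beads counted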;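 also: 100 nL of 1 mM stock went into each well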
# Mtb hypoxia rep: reduces hypoxia-regulated biosensor signal in M. tuberculosis. M. tuberculosis hypoxia-regulated fluorescent reporter, fluorescence. fluorescence inhibition, % (no concentration beside the values). hit rate 0.1% among 300,000. AID 1159583;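 active = 35 to 45% if threefold the growth effect, above 45% if 1.5-fold the growth effect; inactive = the rest, general growth blockers included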;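 also: wells of about 50 µL received 100 nL stock; 0% = vehicle wells and 100% = reference inhibitor wells; whole bacteria with a GFP reporter of the hypoxia response; strong numbers were not always called active; many hits fall short of the cut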
# PrP UTR inh: suppresses PrP 5' UTR mRNA reporter expression; cell-based PrP 5' UTR mRNA reporter, plate reader; inhibition, % (concentration not given with the values); hit rate 0.35% among 340,000; AID 488862;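 active = every replicate at 50% or more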;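 also: 0 = median of the neutral control wells; tested in H4 reporter cells; numbers are from one replicate; inactives centre near -14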
# RN4220 kill: kills Staphylococcus aureus RN4220. S. aureus RN4220 growth, OD600, 16 h. hit rate 0.33% among 330,000. inhibition, % (test concentration not listed). AID 1259311;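 active = z-score of -3 or lower and OD600 up to 0.18 on both plates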;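 also: plate controls were untreated cells for no effect and reference antibiotic for full effect; stock transfer was 100 nL into about 80 µL; one replicate is shown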
# Mtb hypoxia rep growth: recorded beside Mtb hypoxia rep, whose call it bears; growth inhibition, %; measured here: M. tuberculosis growth (absorbance);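 0% = vehicle and 100% = reference antibiotic; read after six days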
# An asterisk follows results filed as active; ? = inconclusive; · = not tested or not shown.
SMILES,ugtP null kill,BJeLR viability,Bead autofluor,Mtb hypoxia rep,Mtb hypoxia rep growth,PrP UTR inh,RN4220 kill
Cc1cc(C(=O)N2CCN(Cc3ccccc3)CC2)ccc1[N+](=O)[O-],6,-1,4324,10,11,2,3.1
O=C(CSc1nnc(COc2ccc(F)cc2)o1)N1c2ccccc2CCc2ccccc21,-16,4,10527,-5,-2,0,-3.0
Cc1ccc(NS(=O)(=O)c2ccc(Cl)nc2)c(C)c1,-4,·,4478,4,0,-5,5.6
COc1ccccc1OCc1ccc(C(=O)NCCN(C)C)o1,-3,-15,2954,10,8,-18,-4.9
COc1ccc(NC(C)=O)cc1NC(=O)CN1CCN(c2ccccn2)CC1,·,2,2886,·,·,-41,·
O=c1c2c3n(c(=S)nc2[nH]n1-c1ccccc1)CCCCC3,-2,3,10791,9,5,-20,5.6
O=c1c2[nH]c3ccc(F)cc3c2ncn1CCC1=CCCCC1,5,15,·,-2,2,-26,3.1
CN(C)C(=O)C(=O)c1cccn1-c1ccccc1C#N,2,6,4511,·,·,-16,3.5
COc1ccc(C2=CC(=O)CC(c3ccc(Cl)cc3)C2)cn1 (stereo not drawn),1,·,·,10,4,·,2.5
COC(=O)[C@@H]1C[C@@]2(O)[C@@H](O)[C@@H](O)[C@@H](O)C[C@H]2N1CC(c1ccccc1)c1ccccc1,·,8,3011,·,·,-21,·
CCOc1ncccc1C(=O)Nc1ccc(C(=O)Nc2ccc(OC)cc2)cc1,6,·,4889,1,-2,-1,1.9
CCc1nnc(NS(=O)(=O)c2ccc(NC(=O)c3cccc(OC)c3)cc2)s1,1,-7,4272,3,7,0,1.9
COc1ccc(N2CCN(C(=O)Cn3nnc(-c4ccccc4N)n3)CC2)cc1,5,0,3963,2,9,-31,-1.6
N#Cc1ccccc1S(=O)(=O)Nc1ccc2c(c1)C(=O)OC2,-1,-9,?,-2,-4,-4,2.8
O=C(NCCCN1CCC(Cc2ccccc2)CC1)c1ccc2nc(N3CCOCC3)sc2c1,-4,7,7353,6,7,-1,-1.3
CC(C)CCNC(=O)C(c1ccco1)N(Cc1cccs1)C(=O)Cn1nnc2ccccc21 (stereo not drawn),-7,8,2298,3,9,-3,-11
CC(C)(C)NC(=O)C1CC1(c1ccccc1)c1ccccc1 (stereo not drawn),6,0,3592,10,4,-15,3.1
COc1cccc(NC(=O)CSc2nc3ccccc3nc2N2CCOCC2)c1,9,-11,6178,4,2,0,3.1
CCOc1ccc(N2C(=O)/C(=C/c3ccco3)N(C)C2=S)cc1,-6,16,2582,10,3,-26,7.4
COc1cc(/C=N/NC(=O)Cc2ccccc2)ccc1Oc1ccc([N+](=O)[O-])cc1[N+](=O)[O-],·,5,2445,·,·,-17,·

# Laid out differently: results already given
# Second line of a record: ugtP null kill	BJeLR viability	Bead autofluor	Mtb hypoxia rep	Mtb hypoxia rep growth	PrP UTR inh	RN4220 kill
N#Cc1ccccc1S(=O)(=O)Nc1ccc2c(c1)C(=O)OC2
    -1	-9	?	-2	-4	-4	2.8
CCc1nnc(NS(=O)(=O)c2ccc(NC(=O)c3cccc(OC)c3)cc2)s1
    1	-7	4272	3	7	0	1.9
Cc1cc(C(=O)N2CCN(Cc3ccccc3)CC2)ccc1[N+](=O)[O-]
    6	-1	4324	10	11	2	3.1
CC(C)(C)NC(=O)C1CC1(c1ccccc1)c1ccccc1 (stereo not drawn)
    6	0	3592	10	4	-15	3.1
O=C(CSc1nnc(COc2ccc(F)cc2)o1)N1c2ccccc2CCc2ccccc21
    -16	4	10527	-5	-2	0	-3.0
COC(=O)[C@@H]1C[C@@]2(O)[C@@H](O)[C@@H](O)[C@@H](O)C[C@H]2N1CC(c1ccccc1)c1ccccc1
    ·	8	3011	·	·	-21	·
COc1ccc(NC(C)=O)cc1NC(=O)CN1CCN(c2ccccn2)CC1
    ·	2	2886	·	·	-41	·

# New compounds follow:
SMILES,ugtP null kill,BJeLR viability,Bead autofluor,Mtb hypoxia rep,Mtb hypoxia rep growth,PrP UTR inh,RN4220 kill
CCOc1ccc(C(=S)N2CCCC2)cc1OCC,0,6,3662,10,1,-27,4.0
CC(=O)c1c(C)[nH]c(C(=O)NNC(=O)c2ccc(Br)cc2)c1C,6,·,3851,-4,-3,-16,20
O=C(Nc1ccccn1)C1CCCN(c2ncnc3c2nc2n3CCCCC2)C1 (stereo not drawn),-1,1,5656,1,5,-12,0.1
Cc1cc(Cl)c(C)c(S(=O)(=O)N2CCN(CC(=O)N3CCOCC3)CC2)c1Cl,5,·,6437,8,-6,-16,1.8
c1coc(-c2nc(-c3ccncc3)no2)c1,-4,2,2759,·,·,-64,10
COc1ccccc1NC(=O)C1CCCN(c2nc(C)cc(C)n2)C1 (stereo not drawn),2,-3,9034,7,4,-8,0.6
CCCCCCCCCSc1n[nH]c(N)n1,7,-1,4227,6,8,4,-4.2
CCOc1ccc(NC(=O)N2CCC(n3nnc4cc(C)ccc43)CC2)cc1,1,-8,4100,0,10,-20,-0.2
CCn1c(CNC(=O)C(C)(C)C)nc2ccccc21,-2,2,5256,5,20,6,-13
CCOC(=O)CSc1nc(C)c(C(C)=O)cc1C#N,43,-6,23558*,2,8,-28,2.8
Cc1ccc(Cc2cnc(N3C(=N)SC(c4ccccc4)C3=O)s2)cc1 (stereo not drawn),-5,-3,1952,6,3,-18,24
Cc1cc(NC(=S)N(Cc2cccc(Br)c2)CC2CCC(C(=O)O)CC2)ccc1Cl (stereo not drawn),36,-1,3109,15,4,-17,5.1
Cc1cccc(Cn2c(N(C)Cc3ccccc3)nc3c2c(=O)[nH]c(=O)n3C)c1,10,5,5879,13,12,-28,8.2
C[C@@H](C(=O)NC1CCN(Cc2ccccc2)CC1)N1C(=O)N2CCc3c([nH]c4ccccc34)[C@@]2(C)C1=O,3,-5,7060,·,·,-40,1.4
O=C1c2ccccc2N2C(=O)c3ccccc3C2N1O (stereo not drawn),-7,-5,3224,11,11,-15,-11
CCCOCC(O)CC(Cc1ccccc1)C(=O)NN (stereo not drawn),2,15,4061,4,11,-2,2.2
CC1(C)CC(=O)C(/C=N/n2c(C(F)(F)F)nc3ccccc3c2=O)=C(O)C1,·,-5,9675,·,·,-2,·
CCCCn1c(N)c(N(C)C(=O)c2ccc(OCC3CCCO3)cc2)c(=O)[nH]c1=O (stereo not drawn),2,·,3885,-3,-4,-14,1.4
COc1ccc(Nc2ncc(C(=O)N3CCC4(CC3)OCCO4)c3ccccc23)cc1,17,-1,4197,·,·,-18,13
CCn1c(SCC(=O)N(C)C2CCS(=O)(=O)C2)nnc1-c1ccccc1 (stereo not drawn),0,-8,4513,9,-4,-14,1.2
CCNc1nc(NCC)nc(N/N=C/c2ccc(O)c(OC)c2)n1,·,-5,3391,·,·,-13,·
COc1ccc(COC(=O)N/N=C(\C)CC(=O)Nc2ccc(Cl)cc2)cc1,·,-5,11284,·,·,-18,·
Nc1ccc2nn(-c3cccc4ccccc34)nc2c1,-2,-6,2295,·,·,16,6.2
CCCCc1nnc(NC(=O)c2ccc(-n3cncn3)c([N+](=O)[O-])c2)s1,4,-1,6560,6,12,4,0.9
N/C(=N\OC(=O)Cc1ccccc1)c1ccncc1,1,-7,2116,14,4,1,3.5
NC(=O)c1nsc(C(=O)N(Cc2cccnc2)C(C(=O)NCc2ccccc2)c2ccc(O)cc2)c1N (stereo not drawn),1,-4,5919,1,-3,-11,2.8
COc1ccc(-n2c3c(cc(C#N)c2=O)C(=O)CCC3)cc1,1,-6,3313,-13,3,7,-1.0
O=C(NN=Cc1ccc2ncccc2c1)c1cccc([N+](=O)[O-])c1,1,·,·,16,7,·,0.0
Cc1ccc(S(=O)(=O)N2CCC(=O)N(C(COCc3ccc(C(F)(F)F)cc3)C(C)C)CC2)cc1 (stereo not drawn),3,3,3897,0,2,-11,-3.4
CCN1CCN(S(=O)(=O)c2c(C)cc(C)cc2C)CC1,9,12,3469,-2,5,-5,5.1
CCOC(=O)C1=CCC(c2ccccc2Cl)N(S(=O)(=O)c2ccc(C)cc2)C1C(=O)OCC (stereo not drawn),21,·,·,8,4,·,13
CC(=O)N/C(=N\c1nc(C)cc(C)n1)Nc1ccccc1Cl,·,15,2968,·,·,-25,·
COc1ccc(CNC(=O)CCCn2ccc3cc(S(=O)(=O)N4CCCC4)ccc32)cc1,9,-1,4849,4,-11,-16,2.0
O=C(CN1C(=O)CCOc2ccccc21)Nc1ccc(Cl)c(S(=O)(=O)N2CCOCC2)c1,4,·,3543,12,3,-18,4.6
CC(=O)Nc1cc(C)c2nc(NC(C)=O)sc2c1,-1,0,4396,3,14,-26,1.2
O=C(NN=C1CCC(=NNC(=O)c2ccccn2)CC1)c1ccccn1,10,·,2471,13,5,-9,4.7
COc1cc2[nH]c(C(=O)N(C)Cc3ccccc3)cc2c(OC)c1OC,4,1,4216,18,9,-18,1.6
Nc1ccc(Nc2nc(-c3cc4ccccc4oc3=O)cs2)cc1,12,6,4555,15,-3,-93,5.0
CCCSC(=S)c1c(C)[nH]n(-c2ccccc2)c1=O,90*,-2,5688,10,8,-19,91*
CC(NC(=O)CSc1nc2c(cc1C#N)CN(C)CC2)c1ccccc1 (stereo not drawn),-5,13,8859,9,7,-25,0.4
Nc1ccc(S(=O)(=O)Nc2nccc(/C=C/c3ccc([N+](=O)[O-])cc3)n2)cc1,-1,-12,5294,1,10,4,1.7
O=C(CN1C(=O)CSc2ccccc21)NC1CCCC1,4,-1,10432,6,4,-27,3.8
Cc1oc(=O)c(NC(=O)c2ccccc2)cc1C(N)=O,-3,·,4491,-6,0,-13,-6.4
COc1ccccc1N1CCN(C(=O)C2CCN(S(=O)(=O)c3ccc(F)cc3)CC2)CC1,1,-4,?,-6,7,-10,3.4
CN(C)S(=O)(=O)c1ccc(Cl)c(NC(=O)CN2CCN(Cc3ccc4c(c3)OCO4)CC2)c1,7,1,4384,6,6,11,2.2
CC(C)(C)n1nc2c(c1NC(=O)c1ccccc1F)CS(=O)C2 (stereo not drawn),8,-5,6472,3,3,-1,2.6
COc1ccc(NC2CS(=O)(=O)CC2NCc2ccccc2)cc1 (stereo not drawn),-4,-5,2760,·,·,-24,-1.7
COc1ccccc1OCc1cc(C(=O)N2CCCC(OCc3cccnc3)C2)no1 (stereo not drawn),-3,5,4573,-7,-1,-73,0.0
Oc1cc(Nc2ccncc2)cc2cccnc12,0,·,3481,4,-6,-11,5.0
Cc1ccc(NC(=O)Nc2cccc(Cl)c2)c(C(=O)O)c1,-7,-5,2328,-1,1,-15,9.1

# (further entries)
SMILES,ugtP null kill,BJeLR viability,Bead autofluor,Mtb hypoxia rep,Mtb hypoxia rep growth,PrP UTR inh,RN4220 kill
CC1(C)NC(=O)N(CC(O)CN2CCCC2)C1=O (stereo not drawn),7,-7,7302,6,7,-5,4.4
Nc1nonc1-n1nnc(C(=O)NN=Cc2ccoc2)c1-c1ccccc1,7,·,·,5,9,·,5.5
C=CCn1c(SCC(=O)N(C)C)nc2sc3c(c2c1=O)CCC3,14,11,4329,9,0,-6,6.0
CCC(C)(C)n1nnnc1C(c1cc2ccc(OC)cc2[nH]c1=O)N1CCc2ccccc21 (stereo not drawn),-32,4,17938*,-4,-2,-22,28
Cc1nn(Cc2ccccc2)c(C)c1NC(=O)CCCn1nc([N+](=O)[O-])c(Cl)c1C,9,-9,7563,6,9,-3,10
CCOP(=O)(c1ccc(N(C)C)cc1)C(O)c1ccncc1 (stereo not drawn),1,-1,6275,6,-4,-20,0.3
Cn1nc(-c2ccccn2)nc2c(=O)n(C)c(=O)nc1-2,7,22,3666,-2,7,26,5.8
COc1ccc(C=NOCc2ccccc2C#N)c(OC)c1,-8,·,·,-3,-6,·,-3.4
Cn1c(Cc2cccs2)nnc1SCC(=O)N1CCCc2ccccc21,3,0,4080,6,9,-15,2.8
O=C1CN(C(=O)COc2ccc(F)cc2Cl)c2ccccc2N1,4,17,4152,3,9,-14,3.5
CCN(CC)c1ccc(C=NN2C(=O)c3ccccc3C2=O)cc1,5,·,·,5,8,·,1.7
CCOc1ccccc1C(=O)N(Cc1cccs1)C1CCS(=O)(=O)C1 (stereo not drawn),-1,8,2569,·,·,-17,3.7
CN1C=CC=C/C1=C1/N=C(c2ccccc2)OC1=O,1,5,3396,17,1,-44,1.4
COc1ccc(S(=O)(=O)Nc2nnc(CC(C)(C)C)s2)cc1,7,6,3790,5,1,-55,3.9
CCOc1ccc2nc(SCC(=O)NC(=O)C(C)C)sc2c1,15,1,4200,9,9,-3,0.6
CCN(Cc1ccncc1)C(=S)Nc1c(C)cccc1C,·,12,10820,·,·,-18,·
